NPYLR7 agonist: mosquito NPYLR7 agonism. activation, % at 10 µM. 270,000 compounds, 0.15% hits. HEK293T NPYLR7/Galpha15, GCaMP6s calcium fluorescence. AID 1259423; in the data active means activation above about 40%;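 further: 0% = vehicle and 100% = reference agonist at the receptor; some compounds past the cut are filed as inactive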
NPYLR7 agonist max-min: second read-out of NPYLR7 agonist, no call of its own (marks repeat the call); activation, %; measured here: Max-Min RFU normalised activation; some inactives read as strong as hits;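 span of the calcium signal over five minutes; 0% = vehicle and 100% = native peptide agonist; compound fluorescence can raise it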
An asterisk follows results filed as active; & = joins results of further samples.

Start of the listing, in advance (21 entries):
SMILES	NPYLR7 agonist	NPYLR7 agonist max-min
c1ccc(OCc2cc(-c3ccccc3)n[nH]2)cc1	2	0
O=C(O)C1CN(C(=O)CCCCc2ccccc2)CCN1 (configuration not stated)	3	0
CCOc1c(CC)cnc2c1c(=O)n(CC(=O)N1CCOCC1)c(=O)n2C	-3	-5
CSc1ccc(CC(=O)Nc2nc3c(s2)CN(C)CC3)cc1	-6	0
COc1ccccc1NC(=O)c1c(C)oc(C)c1-c1ccc(Cl)cc1	-14	-21
CCCn1c(Cc2ccccc2)nnc1SCC(=O)N(C1CCCC1)C1CCS(=O)(=O)C1 (configuration not stated)	-1	23
N#CC(NC(=O)COc1ccc(Cl)cc1)c1ccc(F)cc1 (configuration not stated)	-8	-9
Cc1ccc2oc(C(=O)N3CCCN(Cc4cccs4)CC3)c(C)c2c1	11	4
CCC(CC)C(=O)Nc1cc(-c2cn3cccnc3n2)ccc1C	7	11
Cc1[nH]c2c(F)cccc2c1CC(=O)NC(C)c1nc(-c2ccccn2)no1 (configuration not stated)	21	6
O=C(CN1C(=O)C2SCCN2C(=O)c2ccccc21)N1CCC(Oc2ccncc2)CC1 (configuration not stated)	3	5
COCCNC(=O)N1CCC(c2c[nH]c3cc(F)ccc23)CC1	9	8
Cc1cc(=O)[nH]c(NCCNC(=O)CCN2CCCCO2)n1	3	1
CC(=O)N(C)C1CCN(C(=O)NC(C)Cc2cc(C)cc(C)c2)CC1 (configuration not stated)	-22	-22
Cc1cc(C)n(C2CN(C3CC(C)OC3=O)C2)n1 (configuration not stated)	5	2
Cn1c(=O)c2c(ncn2CC(=O)NC(=O)NC2CCCCC2)n(C)c1=O	2	2
CC(=O)c1c(C)nn(CC(=O)Nc2ccnn2C2CCCCC2)c1C	12	7
Cc1cc(C)c(S(=O)(=O)Nc2cccc(C3SCC(=O)N3c3ccc(F)cc3)c2)c(C)c1 (configuration not stated)	0	4
CC(C)c1ccccc1N1C(=O)CSC1c1ccccc1NC(=O)c1cccs1 (configuration not stated)	-2	11
Cc1n[nH]c(C)c1CN1CC[C@@H](c2ccc3c(c2)OCO3)[C@H](O)C1	6	5
COCCNS(=O)(=O)c1ccc(OC)c(N2CCN(S(=O)(=O)c3cc(C)ccc3C)CC2)c1	5	5

The whole of this part, from the first entry:
SMILES	NPYLR7 agonist	NPYLR7 agonist max-min
c1ccc(OCc2cc(-c3ccccc3)n[nH]2)cc1	2	0
O=C(O)C1CN(C(=O)CCCCc2ccccc2)CCN1 (configuration not stated)	3	0
CCOc1c(CC)cnc2c1c(=O)n(CC(=O)N1CCOCC1)c(=O)n2C	-3	-5
CSc1ccc(CC(=O)Nc2nc3c(s2)CN(C)CC3)cc1	-6	0
COc1ccccc1NC(=O)c1c(C)oc(C)c1-c1ccc(Cl)cc1	-14	-21
CCCn1c(Cc2ccccc2)nnc1SCC(=O)N(C1CCCC1)C1CCS(=O)(=O)C1 (configuration not stated)	-1	23
N#CC(NC(=O)COc1ccc(Cl)cc1)c1ccc(F)cc1 (configuration not stated)	-8	-9
Cc1ccc2oc(C(=O)N3CCCN(Cc4cccs4)CC3)c(C)c2c1	11	4
CCC(CC)C(=O)Nc1cc(-c2cn3cccnc3n2)ccc1C	7	11
Cc1[nH]c2c(F)cccc2c1CC(=O)NC(C)c1nc(-c2ccccn2)no1 (configuration not stated)	21	6
O=C(CN1C(=O)C2SCCN2C(=O)c2ccccc21)N1CCC(Oc2ccncc2)CC1 (configuration not stated)	3	5
COCCNC(=O)N1CCC(c2c[nH]c3cc(F)ccc23)CC1	9	8
Cc1cc(=O)[nH]c(NCCNC(=O)CCN2CCCCO2)n1	3	1
CC(=O)N(C)C1CCN(C(=O)NC(C)Cc2cc(C)cc(C)c2)CC1 (configuration not stated)	-22	-22
Cc1cc(C)n(C2CN(C3CC(C)OC3=O)C2)n1 (configuration not stated)	5	2
Cn1c(=O)c2c(ncn2CC(=O)NC(=O)NC2CCCCC2)n(C)c1=O	2	2
CC(=O)c1c(C)nn(CC(=O)Nc2ccnn2C2CCCCC2)c1C	12	7
Cc1cc(C)c(S(=O)(=O)Nc2cccc(C3SCC(=O)N3c3ccc(F)cc3)c2)c(C)c1 (configuration not stated)	0	4
CC(C)c1ccccc1N1C(=O)CSC1c1ccccc1NC(=O)c1cccs1 (configuration not stated)	-2	11
Cc1n[nH]c(C)c1CN1CC[C@@H](c2ccc3c(c2)OCO3)[C@H](O)C1	6	5
COCCNS(=O)(=O)c1ccc(OC)c(N2CCN(S(=O)(=O)c3cc(C)ccc3C)CC2)c1	5	5
COc1cccc(-c2cc(-c3ccc(C(=O)NCc4cccc(Cl)c4)cc3)[nH]n2)c1	27	18
O=C1NC(=S)NC(=O)C1=Cc1ccc(Oc2ccc([N+](=O)[O-])cn2)cc1	-2	-7
CCc1nc(C)c(C(=O)NC(C)c2n[nH]c(C)n2)o1 (configuration not stated)	3	-1
CCOC(=O)C1(CC2CC2)CCN(C(=O)c2cccnc2C)CC1	9	10

(more compounds)
SMILES	NPYLR7 agonist	NPYLR7 agonist max-min
COc1ccc(-c2cc3c(=O)n(CC(=O)Nc4ccc(Oc5ccccc5)cc4)ccn3n2)cc1	8	-1
CC(c1ccc(S(N)(=O)=O)cc1)N(C)c1nccc(C(F)(F)F)n1 (configuration not stated)	8	6
O=S(=O)(Nc1nccnc1N1CCN(S(=O)(=O)c2cccc3ccccc23)CC1)c1ccc(C(F)(F)F)cc1	7	11
CCCCN1CN(CCc2c(C)cc(C(C)(C)C)cc2C)Cn2c1nc1ccccc12	-2	-4
COc1ccc(-c2nnc(SCC(=O)c3ccccc3)o2)cc1	4	0
Cc1ccccc1Cn1c(C)c(C(=O)NCc2ccccc2C(F)(F)F)sc1=O	11	10
COc1ccc(CN(CC2CCCO2)C(=O)NC(C)(C)C)cc1OS(C)(=O)=O (configuration not stated)	25	22
CC(C)N=c1ccccn1C(=O)c1cnc(-c2ccccc2)s1	-7	-7
COc1ccc(C2=N/C(=C\C=C\c3ccccc3)C(=O)O2)c(Cl)c1	-10	-16
O=C(Nc1ccc2c(c1)CCO2)c1cc(Cl)cc(Cl)c1	-1	-1
CC1(C(=O)Nc2cccc(NS(C)(=O)=O)c2)CCN1CC1CCCCC1 (configuration not stated)	2	-1
C=CCNc1nnc(Cc2ccc(C)cc2)c(=O)[nH]1	11	7
COc1cc(/C=c2\sc3nc4cc(Br)cnc4n3c2=O)ccc1O	17	8
O=C(COC(=O)c1cc[n+]([O-])cc1)c1ccc2[nH]c(=O)[nH]c2c1	1	3
COc1ccc(CNc2ccc(S(=O)(=O)C(F)(F)F)cc2)cc1O	12	10
O=C(C1CCC1)N1C[C@H](Oc2ccccn2)[C@H]2C[C@@H]1CC[C@H]2O	19	28
COc1ccc(NC(=O)Cn2nc(SC)c(-c3nc(-c4ccccc4)no3)c2N)cc1OC	6	-4
Cc1ccc(OCCNC(=O)N2CCN(S(=O)(=O)c3ccc(F)cc3)CC2)cc1	5	4
Cc1nc(CCNC(=O)C2CCN(c3ccccc3)C2=O)nc2c1CCCC2 (configuration not stated)	-1	-5
COc1ccc(C2C(C(=O)c3cccs3)=C(O)C(=O)N2CCCN(C)C)cc1OC (configuration not stated)	1	1
CC(C)(C)c1nc(CN2CCCC2c2ccc[nH]2)cs1 (configuration not stated)	1	-2
Cc1cc(O)c(CN(C)Cc2ccccc2)c2c1C(=O)/C(=C/c1cccnc1)O2	18	17
COc1cccc(Nc2nc(C)c([N+](=O)[O-])c(Nc3cccc(OC)c3)n2)c1	-4	-7
Cc1nc(CN2CCN(C(=O)C3CCN(C(=O)c4ccc(F)cc4)CC3)CC2)cs1	18	17
O=C(Nc1nncs1)c1cc2c(s1)CCC2	0	-3

Remaining list, next part:
SMILES	NPYLR7 agonist	NPYLR7 agonist max-min
Cc1nc(N)[nH]c(=O)c1CCOC(=O)CCc1cccc(Br)c1	5	4
Cc1ncc(CC(=O)NC2CC(=O)N(C3Cc4ccccc4C3)C2)c(=O)[nH]1 (configuration not stated)	7	5
CC(C)CN1CCNC(=O)C1CC(=O)N(C)Cc1cccc(C(F)(F)F)c1 (configuration not stated)	18	13
Cc1ccc(CN(CCc2ccccc2)C(=O)CN(CC2CCCO2)C(=O)Nc2cccc(F)c2)o1 (configuration not stated)	3	22
OCC1(Cc2ccccc2)CCN(Cc2cnc(-c3cccc4ccccc34)nc2)CC1	10&8	7&9
Cc1cc(C)c(NC(=O)COc2cccc(OCC(F)(F)F)c2)c(Cl)c1	3	-1
CCNC(=O)NC1CC(=O)N(CC(C)(C)C)C1 (configuration not stated)	3	2
COc1ccc(C(=O)NC2CC2)cc1OC1CCN(Cc2nccn2C)CC1	19&9	11&1
C=c1onc(-c2ccccc2)c1=c1[nH]/c(=C\c2ccccc2F)c(=O)o1	-3	-5
O=S(=O)(Cc1ccccc1Cl)Nc1nc2cc(Cl)ccc2o1	3	0
CCCOc1cc(Nc2ccc(NC(=O)Nc3ccc(OC)cc3)cc2)nc(C)n1	11	8
Cc1cnccc1NC(=O)CCc1ccc(Cl)s1	-9	-9
COC(=O)c1cccc(S(=O)(=O)NC(C)Cc2ccco2)c1 (configuration not stated)	4	1
C=CCN(Cc1ccc(C)s1)C(=O)c1cnc(-c2ccccc2)[nH]1	-2	-6
CCc1cc2c(=O)n(CC)c(SCCC#N)nc2s1	-2	-7
CC(C)CCOC(C)C(=O)Nc1cccc(NC(=O)C(C)(C)C)c1 (configuration not stated)	3	3
Cc1nc2n(n1)C(=O)C(C(c1cccc(Cl)c1)N1CC(C)OC(C)C1)S2 (configuration not stated)	-3	-6
CCc1c(C)nc(-c2cccc(C(F)(F)F)c2)nc1N1CCN(C(=O)Nc2ccc(Br)cc2)CC1	-3	2
Fc1cccc(CN2CCCn3cccc3C2c2ccoc2)c1 (configuration not stated)	16	27
CN(C)S(=O)(=O)N1CCC(Oc2cccc(C(=O)NCCC3=CCCCC3)c2)CC1	-7	-9
CN(C)c1ccc(NC(=O)c2cccc(F)c2)cc1CN(C(=O)c1ccc(F)cc1)C1CC1	16	12
CCOC(=O)c1cc(-c2cccc(NC(=O)c3ccco3)c2)n(-c2ccc(F)cc2)n1	24	10
CN1CCN(C(CNC(=O)NC(C)(C)C)c2ccc(N(C)C)cc2)CC1 (configuration not stated)	0	0
CCOC(=O)CNC(=O)N1CCCC(Cc2ccccc2)(C(=O)OCC)C1 (configuration not stated)	5	5
COc1ccc(Cn2c(=O)c(N3CCOCC3)nc3cc4c(cc32)OCCO4)cc1F	3	0

(listing goes on)
SMILES	NPYLR7 agonist	NPYLR7 agonist max-min
FC(F)(F)c1cc(-c2ccco2)nc2c1cnn2Cc1cccnc1	-3	-5
O=C(NCc1cccc(Cl)c1)N1CCCC1CN1CCOCC1 (configuration not stated)	5	5
Cc1cc(C2CCC2)nc(N2CCC3(CCNC(=O)CC3)CC2)n1	-3	1
CN(C)CC1(O)CCCN(S(=O)(=O)c2ccc(F)cc2Cl)CC1 (configuration not stated)	10	6
CNc1cncc(-c2cnn(C)c2)n1	2	1
CN(C(=O)C1=NN(Cc2ccccc2)C(=O)CC1)c1cccnc1	3	0
Cc1cc(C(=O)CSc2nnc(NC(=O)COCc3ccccc3)s2)ccc1Cl	28	22
Cc1nc2c(c(=O)[nH]1)CCN(S(=O)(=O)c1cc(Cl)ccc1Cl)C2	9	6
CCOc1nc(-c2ccccc2F)n(-c2ccc(NC(=O)C(Cl)c3ccccc3)cc2)n1 (configuration not stated)	1	6
CN1CCN(n2c3c(c(SCc4ccc([N+](=O)[O-])cc4)nc2=O)CCC3)CC1	-5	-9
CN(C(=O)C1=CN2CCN(Cc3ccccc3C(F)(F)F)C(=O)N=C2O1)c1ccccc1	-3	-4
Cc1ccccc1C(=O)C=c1s/c(=C\c2cccs2)c(=O)n1CC(=O)NC(C)C	13	8
CCN(CC)C(=O)CCCC(=O)N1CSCC1C(=O)Nc1ccc(F)cc1 (configuration not stated)	8	2
CC(=O)NC1C(=O)N(CCOc2ccccc2Cl)c2ccc(Cl)cc21 (configuration not stated)	3	-1
O=C(C1CCC1)N(Cc1cccc(Cl)c1)CC1CC(c2ccccc2Cl)=NO1 (configuration not stated)	19	26
CN(Cc1ccccc1)Cn1nc(-c2cccnc2)n(C2CC2)c1=S	2	-4
CN(C)CCN(Cc1ccccc1)C(=O)c1cc(-c2ccccc2Cl)nc2cc(-c3ccccc3)nn12	11	21
CC(C)C(NC(=O)CCl)c1cccs1 (configuration not stated)	-2	-1
COc1ccc(-c2cnc3ncnn3c2N2CCCN(C(=O)Nc3ccccc3OC)CC2)cc1	14	3
C=CCN(CC(=O)N(Cc1cccn1C)CC(C)C)C(=O)Nc1ccccc1C(F)(F)F	-10	-13
Cc1c(C(=O)N2CCOCC2)nnn1-c1ccc(Br)cc1	1	13
C=CCN(CC(=O)N1CCc2sccc2C1COc1ccccc1)C(=O)Cc1ccccc1 (configuration not stated)	-2	4
Cc1cc(=O)n2nc(CSc3nnc(-c4cccs4)n3C3CC3)sc2n1	-2	0
O=C(Cc1ccc(Br)cc1)Nn1c(C2CC2)n[nH]c1=S	0	-2
COC(=O)CCCC(=O)NCCc1nc2ccccc2[nH]1	-5	-12

Next structures follow:
SMILES	NPYLR7 agonist	NPYLR7 agonist max-min
CCN(CC)S(=O)(=O)c1ccc(OC)c(N2CCN(C(=O)C(Cl)Cl)CC2)c1	4	10
COc1ccc(CCNC(=O)c2cccnc2N2CCN(C(=O)COc3cccc(Cl)c3)CC2)cc1OC	17	5
CC(C)c1ccc(C(=O)O)cc1S(=O)(=O)Nc1ccc(=O)n(C)c1	5	3
CC(C(=O)NC1(C#N)CCCCC1)N(C)CCOc1ccc(Cl)cc1 (configuration not stated)	4	0
CCc1cc(NCc2cccnc2-n2ccnc2)nc(N(C)C)n1	6	4
O=C(c1cc(COc2ccc(F)c(F)c2)on1)N1CCSCC1	-1&3	-8&3
Cc1cc(C)c2c(c1)CC(C)(C)C(=O)N(NC(=O)Cc1c[nH]c3ccccc13)C2=O	-3	-7
CC(=O)Nc1cncc(-c2c(C)noc2C)n1	1	-2
CC(C)CN1C(=O)c2ccccc2[C@H](C(=O)N2CCN(c3c(Cl)cncc3Cl)CC2)[C@@H]1c1ccoc1	-10	-13
Cc1cccc(=O)n1CCc1nc(C2CC2)nn1-c1ccc2c(c1)OCCO2	0	-4

Screening data deposited in PubChem BioAssay by Fisher Drug Discovery Resource Center.

This is a subset, so the mix of outcomes need not match the whole.
